# Screening data (PubChem)
# MgrA-DNA mod: modulators of Staphylococcus aureus MgrA DNA binding. AID 602314. inhibition, %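 (about 10 µg/mL by stock and volumes)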. fluorescence polarization. 84,000 tested, 0.13% active;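 active means above 50% in either of two replicates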;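 further: 0% = protein plus DNA without compound and 100% = DNA alone without protein; higher means less MgrA bound to DNA so lower polarization; one replicate is shown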
# S aureus helic: S. aureus DNA helicase inhibition. purified S. aureus helicase, fluorescence unwinding assay; about half of the hits fall short of the stated cut. inhibition, %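 (tested at about 80 µM)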. 120,000 tested, 0.05% active. AID 485395;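 active means both duplicates at 50% or more, or one of them with a favoured structure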;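 further: 0% = mean of negative control wells and 100% = mean of positive control wells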
# * marks the source's active call; other numbers are inactive results; · = not tested or not shown; & = joins results of further samples. This is a subset; the hit share may differ from the screen's.
MgrA-DNA mod	S aureus helic	molecule
-4.0	0	O=C(O)CC12CC3CC(C1)CC(n1cncn1)(C3)C2
·	18	Fc1cc(F)nc(NCc2ccccc2)n1
4.3	·	Cc1ccc(C)n1-c1ncccc1O
8.4	-14	CC(Oc1ccc(S(=O)(=O)NCc2ccccn2)cc1)C(=O)NC1CCCCC1 (stereo not drawn)
0.7	2	O=C1CCC(=O)c2oc3ccccc3c2N1
·	15	O=c1c2cc3ccccc3oc-2nn1-c1ccccc1
·	22	CCNc1nc(NCC)n2c(SCC(=O)Nc3ccc(CC)cc3)nnc2n1
-0.5	-1	CN(C)C(=O)CSc1nc(SCC(=O)N(C)C)n(-c2ccccc2)n1
5.4	8	CCOC(=O)c1cnc(Cc2ccccc2)[nH]c1=O
-0.1	-3	Cc1cccc2cc(CN(Cc3ccccc3)C(=O)c3ccccc3)c(=O)[nH]c12
·	-10	Cc1cc(NC(=O)c2ccco2)sc1C
5.5	9	C[N+](C)(CCOc1ccccc1)Cc1ccccc1 (tested in a mixture with another compound)
·	6	O=C(Cn1c(=O)n(Cc2ccco2)c(=O)c2ccccc21)Nc1cccc(Cl)c1
3.1	·	CSc1sc(C(=O)Sc2ccccc2)cc1S(=O)(=O)C(C)C
1.4	-19	COC(=O)c1c(/N=C/c2c(O)n(Cc3ccccc3)c(=O)[nH]c2=O)sc2c1CCCC2
3.2	-27	N#CCC(=O)Nc1ccc2c(c1)OCO2
·	8	CC(=O)N(CCC(Cc1ccccc1)c1ccco1)C(=O)Cc1ccco1 (stereo not drawn)
·	-13	CN(C)S(=O)(=O)c1ccc(C(=O)OCC(=O)NCc2ccccc2)cc1
-2.2	·	COC(=O)CNC(=O)c1cccnc1SC
0.0	19	COc1ccc(NC(=O)c2cnn(-c3ccc(C)c(C)c3)c2C2CCNCC2)cc1Cl
1.4	·	COc1ccccc1-c1nc(C)c2c(C)c(C#N)sc2n1
-2.8	5	O=C(N1CCOCC1)C1(c2ccc(Cl)cc2)CCCC1
·	8	COC(=O)c1sc(N)nc1C
·	-28	CCCCNc1cc(C)nc(CCC)n1
-1.5	3	Cc1cc(Oc2ccccc2)nc(Oc2ccc(OCC(N)=O)nn2)n1
1.1	9	Cc1[nH]c2ccccc2c1CN1CCC(Cc2ccccc2)CC1
0.2	11	CCN(c1ccccc1)S(=O)(=O)c1ccc2[nH]c3c(c2c1)CCCC3
-3.1	1	Nc1ncnc2c1ncn2CCO
2.6	-17	COC(=O)c1ccc(NC(=S)N(C(C)C)C(C)C)cc1
2.1	·	Cc1csc(-c2cn(C(C)C)c(=O)n(CC(=O)NN)c2=O)n1
-0.7	9	CN(Cc1ccccc1)S(=O)(=O)c1ccc2c(c1)CCN2C(=O)C1CC1
-1.2	-1	COc1ccc(NC(=O)OCC23COCN2COC3)cc1
·	22	O=C1C=CC(=O)N1c1cccc(Cl)c1
·	14	CCOCc1cn(CC(=O)c2ccc(CC)cc2)c(C)nc1=N
3.7	2	CCc1cccc(NC(=O)CCCCCC2NC(=O)NC2C)c1 (stereo not drawn)
-2.1	-1	O=C(NCc1ccco1)C1C2C3CCC(C3)C12 (stereo not drawn)
-0.2	12	COc1ccc(C2OCC(CO)(CO)CO2)cc1
2.7	·	COC(=O)c1cc(=O)n2ccccc2c1C#N
·	-9	Cc1cc2cc(CCNC(=O)CC3CCCCC3)c(=O)[nH]c2cc1C
0.9	4	CCOC(=O)c1[nH]c(C)c(C(=O)N2CCCC2)c1C
·	-7	O=C(c1ccc2c(c1)OCO2)N1CCCCCCC1
·	4	Cn1cc(C#N)c2ccccc21
0.9	0	O=C(c1ccc(Cl)cc1)N1CCC(c2nc(-c3ccc(F)cc3)no2)CC1
·	-15	Cc1ccc2nc(Nc3cccc(O)c3)c3nncn3c2c1
·	-22	CCc1ccc(-n2nnc(S(=O)(=O)c3ccc(CC)cc3)c2N)cc1
0.8	6	COc1ccccc1/C=C/C1C(C(=O)OCC(C)C)=C(C)N=C2SCCC(=O)N21 (stereo not drawn)
1.0	9	O=C(CSc1ccccc1)Nc1nc2ccc(Br)cc2s1
·	11	CCOC(=O)c1c(C)oc2c1c(CN1CC(C)OC(C)C1)c(O)c1ccccc12 (stereo not drawn)
·	-8	O=C(Cn1cc(C(F)(F)F)cc(Cl)c1=O)Nc1ncccn1
-0.1	·	Cc1onc(-c2ccccc2Cl)c1-c1nnnn1-c1ccccc1
-1.1	·	Fc1ccc(-c2nc(-c3ccc(C(F)(F)F)cc3)no2)c(Cl)c1
1.0	4	CCC(Oc1ccccc1)C(=O)N1CCC(C(N)=O)CC1 (stereo not drawn)
·	12	Cc1nc(/C(C#N)=N\O)cs1
-0.6	6	Cc1nc2cccc(C(=O)Oc3ccc(C(C)(C)C)cc3)c2o1
·	-5	CCN(CC)C(=S)Nc1c(C)cccc1C
-0.7	-6	CCOC(=O)C1=C(SCC)c2ccc(-c3ccccc3)n2C1=O
-21	1	O=C(O)C1C2C=CC3(CN(C(c4ccccc4)c4ccccc4)C(=O)C13)O2 (stereo not drawn)
2.8	8	COc1ccc(C(=O)On2c(-c3ccccc3)cc3ccccc32)cc1
·	2	C/C(=N\OCc1ccc(C(=O)N2CCCCC2)o1)c1cccc(C(F)(F)F)c1
-3.6	·	COc1nc(C)cc(C)c1C(N)=O

# A different layout for 17 compounds above:
# Each structure is followed by: MgrA-DNA mod | S aureus helic
- Cn1cc(C#N)c2ccccc21
→ · | 4
- O=C(c1ccc(Cl)cc1)N1CCC(c2nc(-c3ccc(F)cc3)no2)CC1
→ 0.9 | 0
- Cc1ccc2nc(Nc3cccc(O)c3)c3nncn3c2c1
→ · | -15
- CCc1ccc(-n2nnc(S(=O)(=O)c3ccc(CC)cc3)c2N)cc1
→ · | -22
- COc1ccccc1/C=C/C1C(C(=O)OCC(C)C)=C(C)N=C2SCCC(=O)N21 (stereo not drawn)
→ 0.8 | 6
- O=C(CSc1ccccc1)Nc1nc2ccc(Br)cc2s1
→ 1.0 | 9
- CCOC(=O)c1c(C)oc2c1c(CN1CC(C)OC(C)C1)c(O)c1ccccc12 (stereo not drawn)
→ · | 11
- O=C(Cn1cc(C(F)(F)F)cc(Cl)c1=O)Nc1ncccn1
→ · | -8
- Cc1onc(-c2ccccc2Cl)c1-c1nnnn1-c1ccccc1
→ -0.1 | ·
- Fc1ccc(-c2nc(-c3ccc(C(F)(F)F)cc3)no2)c(Cl)c1
→ -1.1 | ·
- CCC(Oc1ccccc1)C(=O)N1CCC(C(N)=O)CC1 (stereo not drawn)
→ 1.0 | 4
- Cc1nc(/C(C#N)=N\O)cs1
→ · | 12
- Cc1nc2cccc(C(=O)Oc3ccc(C(C)(C)C)cc3)c2o1
→ -0.6 | 6
- CCN(CC)C(=S)Nc1c(C)cccc1C
→ · | -5
- CCOC(=O)C1=C(SCC)c2ccc(-c3ccccc3)n2C1=O
→ -0.7 | -6
- O=C(O)C1C2C=CC3(CN(C(c4ccccc4)c4ccccc4)C(=O)C13)O2 (stereo not drawn)
→ -21 | 1
- COc1ccc(C(=O)On2c(-c3ccccc3)cc3ccccc32)cc1
→ 2.8 | 8

# Continuation:
MgrA-DNA mod	S aureus helic	molecule
·	3	CCN(CC)S(=O)(=O)c1ccc(N2CC(C(=O)Nc3ccc4c(c3)OCO4)CC2=O)cc1 (stereo not drawn)
0.0	3	COc1ccc(C)cc1NS(C)(=O)=O
0.3	5	CSc1cccc(NC(=O)c2ccc(CN3CCOCC3)cc2)c1
0.6	-5	CCc1nnc(N2CCN(c3ncnc4c3oc3ccccc34)CC2)s1
-1.0	-5	COc1ccc(N2CC(C(=O)NCCc3c[nH]c4ccccc34)CC2=O)cc1 (stereo not drawn)
·	23	CCN(Cc1ccccc1)C(=O)CCN1C(=O)/C(=C\c2ccco2)SC1=S
0.9	0	Cc1[nH]cnc1C(F)(F)F
5.5	11	CCOC(=O)c1ccc(Nc2cc(C)nc(C)c2C(=O)OCC)cc1
·	0	Cc1csc(NC(=O)CC(C)(C)C)n1
·	-5	CN(C)c1ccc(/C=C/C(O)=C2/C(=O)N(C)C3(C)CC2c2ccccc2O3)cc1 (stereo not drawn)
-1.0	·	COc1ccc(OC)c2ccccc12
-1.5	9	CCOc1ccc(NC(=O)C2CC=CCC2C(=O)OC(C)CC)cc1 (stereo not drawn)
0.7	·	O=S(=O)(Cc1noc(-c2ccc(OC(F)(F)F)cc2)n1)Cc1ccco1
·	-2	CCOC(=O)c1cc2c(N)[nH]nc2[nH]c1=O
-1.3	8	CCC(C)(C)C(=O)NCc1ccc2c(c1)OCO2
·	-13	CCCOC(=O)c1cc(-c2ccc(/C=C3\C(=O)N(CCCO)C(=O)C(C#N)=C3C)o2)ccc1Cl
0.6	-2	CNC(=O)CCc1cc2ccccc2[nH]1
·	18	O=C(/C=N/O)Nc1ccc(C(=O)O)cc1
5.3&-0.4	·	C=CCSCC1Nc2cc(Cl)c(S(N)(=O)=O)cc2S(=O)(=O)N1 (stereo not drawn)
·	2	Cc1cc(/C=N/NC(=S)Nc2cccnc2)c(C)n1-c1cccc(S(=O)(=O)N2CCOCC2)c1
1.2	-16	CC(C)(C)OC(=O)Nc1cn(-c2ccccc2)nc1-c1ccccc1
19	-32	CC(=O)Nc1ccc(Nc2c3c4c(cccc4[nH]c2=O)C(=O)c2ccccc2-3)cc1
0.0	·	C#CCOC(=O)c1c(-c2c(Cl)cccc2Cl)noc1C
-0.2	-8	CCC1(c2ccccc2)NC(=S)N(c2ccccc2)N1 (stereo not drawn)
-1.0	-10	Fc1ccc(-c2cn3c(-c4ccccc4)c(-c4ccccc4)nc3[nH]2)cc1
-0.9	·	Cc1ccc(C)n1-c1sccc1C(=O)NN
·	13	Cc1ccccc1Cn1cc(NC(=O)c2cc(-c3ccc4c(c3)OCO4)on2)cn1
-0.1	5	CCc1ccc(NC(=O)NCCCN2CCN(c3ccccc3)CC2)cc1
-2.9	·	O=C(NCc1csc(-c2cccs2)n1)C1CCC1
-1.5	-14	CC1CCCN(C(=O)c2cc(-c3ccco3)nc3ccccc23)C1 (stereo not drawn)

# Reprinted at random: 2 compounds from above, in no set order.
MgrA-DNA mod	S aureus helic	molecule
-0.9	·	Cc1ccc(C)n1-c1sccc1C(=O)NN
5.3&-0.4	·	C=CCSCC1Nc2cc(Cl)c(S(N)(=O)=O)cc2S(=O)(=O)N1 (stereo not drawn)

# (continued)
MgrA-DNA mod	S aureus helic	molecule
-2.0	·	CC1(C)CC(=O)C2=C(C1)Nc1ccccc1NC2c1coc2c(Cl)cc(Cl)cc2c1=O (stereo not drawn)
-1.3	·	CC(=O)c1cnc2cc(C)nn2c1C
-0.1	·	CCOC(=O)c1sc2nc(N3CCOCC3)c3c(c2c1N)CC(C)(C)OC3
·	3	Cc1ccc(C2=NN(C(=O)COC(=O)c3ccc(-n4cnnn4)cc3)C(c3ccco3)C2)cc1 (stereo not drawn)
·	-11	O=C(c1ccccc1)C1CCN(C(=O)c2ccc(Cl)cc2)CC1
-2.5	·	c1ccc(-c2nc(-c3cccs3)cs2)cc1
-0.2	·	CC(=O)c1ccc(OCc2cc(F)cc(F)c2)cc1
·	26	O=C(COc1ccc(Cl)cc1)N=Nc1c(O)n(CN2CCCCCC2)c2ccccc12
0.6	-13	CC1=C(C(=O)OC(C)C)C(c2sccc2C)NC(=O)N1 (stereo not drawn)
·	11	CN(C)CCNC(=O)c1cccc(S(=O)(=O)Nc2ccccc2Cl)c1
·	0	Cc1c(C(=O)N2CCC(C(N)=O)CC2)oc2ccc(Br)cc12
3.5	·	C=CCNC(=S)NNC(=O)c1ccncc1
·	5	S=C(NNc1ccc(Cl)nn1)NC1CC2CCC1C2 (stereo not drawn)
-1.9	10	O=S(=O)(NCC1CCCO1)c1ccc(Br)cc1 (stereo not drawn)
2.8	13	CCC(C)Sc1nc2ccccc2c(=O)[nH]1 (stereo not drawn)
0.0	6	Cn1c(=O)n(C)c2cc(CN)ccc21
·	-37	CC(CCc1ccccc1)NC(=O)Cc1nnc(-c2ccc(Br)cc2)o1 (stereo not drawn)
-0.5	8	Cc1ccc2nc(C(F)(F)F)[nH]c2c1
-1.2	·	COc1ccc(OC)c(/C=C(/C#N)c2nc(-c3cc4c(ccc5ccccc54)oc3=O)cs2)c1
2.0	1	COc1ccc(NC(=O)c2cc3ccc(O)cc3o/c2=N\O)cc1
·	27	O=C1c2ccccc2C(=O)c2c1oc1c3c(ccc21)OCN(C1CCS(=O)(=O)C1)C3 (stereo not drawn)
3.0	7	Cc1cc(C)cc(OCC(=O)NCc2ccc3c(c2)OCO3)c1
-1.0	·	CCOC(=O)C1=C(C)N=c2s/c(=C\c3ccc(OC(C)=O)c(OCC)c3)c(=O)n2C1c1ccc(OC)cc1 (stereo not drawn)
·	7	CCOC(=O)N1CCN(S(=O)(=O)N2CCCC(C(=O)NCCC(C)C)C2)CC1 (stereo not drawn)
·	-5	COc1cccc(CC(=O)N(Cc2ccc3c(c2)OCO3)C2CCCC2)c1
3.3	5	N#Cc1ccc(C=Nc2ccc(S(N)(=O)=O)cc2)cc1
·	-10	O=C(Cc1csc(-c2cccs2)n1)Oc1ccc2c(c1)CCC2
·	0	COc1ccc(-c2nnc(SCC(=O)NC(C)(C)C)n2C(C)C)cc1
·	-7	O=S(=O)(NCc1cccs1)c1ccc(Br)cc1
·	17	COC(=O)c1cccc(C(=O)Nc2cccc3ccccc23)n1
·	14	Oc1ccc(NCc2ccc(Br)cc2)cc1
0.4	·	CCOC(=O)c1cnc2cc(Cl)c(F)cc2c1N1CC(C)OC(C)C1 (stereo not drawn)
·	15	COc1ccc(OC)c(N2CC(c3nc4ccccc4n3Cc3ccccc3F)CC2=O)c1 (stereo not drawn)
·	-11	O=C(OCc1cc(=O)oc2cc(O)ccc12)c1cccnc1Cl
-2.6	3	N#Cc1ccc(-c2cccnc2)n(CC(=O)N2CC(=O)Nc3ccccc32)c1=O
7.1	27	COc1cc2[nH]c(=S)nc(NCCC(C)C)c2cc1OC
·	7	O=C(O)CC(C(=O)O)C1SC(=O)NC1=O (stereo not drawn)
1.4	-4	COC(=O)c1cccc(NC(=O)Cc2cccs2)c1C
4.4	26	COc1ccc(/C=C2\SC(=O)N(C)C2=O)c2ccccc12
·	-21	Cc1ccc(SCc2cn3c(C)cc(C)nc3n2)cc1
3.3	19	CCCn1nnnc1NC(=S)NC(=O)c1cc2ccccc2o1
